FEN1 inh = inhibitors of human flap endonuclease 1; P39748; Recombinant FEN1 flap cleavage, fluorescence, 15 min; Potency, µM (series often up to 114 µM), inactives show top-dose activity change, negative = inhibition, usual class: inhibitors; 0.35% of 390,000 active; note: nearly all actives have a fitted effect of over 65% in size
Target sequence (P39748 whole entry, looked up): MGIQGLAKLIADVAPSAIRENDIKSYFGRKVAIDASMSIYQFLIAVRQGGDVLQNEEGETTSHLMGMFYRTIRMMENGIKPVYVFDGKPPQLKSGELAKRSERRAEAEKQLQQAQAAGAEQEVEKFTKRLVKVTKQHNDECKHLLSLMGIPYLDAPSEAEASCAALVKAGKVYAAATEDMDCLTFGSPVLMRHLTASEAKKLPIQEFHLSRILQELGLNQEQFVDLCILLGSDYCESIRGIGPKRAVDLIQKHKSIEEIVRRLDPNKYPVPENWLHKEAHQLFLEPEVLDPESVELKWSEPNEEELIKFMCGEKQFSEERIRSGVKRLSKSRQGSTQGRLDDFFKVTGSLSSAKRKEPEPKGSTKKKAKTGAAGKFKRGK
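Read-out was taken twice, immediately and after 15 min, following addition of 50 nM substrate to 10 nM FEN1 that had sat with test compound for 15 min at room temperature. Curves came from a four-parameter Hill model.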
N370S GC mod = inhibits or activates N370S mutant glucocerebrosidase. P04062. N370S GC spleen homogenate, 4MU-glucoside fluorescence. Potency, µM (series often up to 59.4 µM), for inactives: top-dose activity change, negative = inhibition, most hits filed as inhibitors. 0.092% of 330,000 active. AID 2101;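 note: 0% = full enzyme activity and -100% = no enzyme basal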
* = called active by the depositor; ? = inconclusive; nt = not tested or not shown; & = joins results of further samples. Calls come from the whole dose curve; as a rule, active = well fitted curve in the direction sought with a large enough effect; inconclusive = small, poorly fitted or top-dose-only effect, or another doubt; inactive = no such curve, though single readings can be large; an effect the other way counts as inactive or inconclusive. Unless noted, % is set by controls: 0 for no effect and ±100 for the full control effect; potency is the fitted concentration of half-maximal effect.

SMILES	FEN1 inh	N370S GC mod
COc1ccc(CCC(=O)OCC(=O)Nc2ccccc2OC(F)F)cc1OC	-11%	2%
COc1ccc(C2(O)CCN(C(=O)c3c(F)cccc3F)CC2)cc1	-14%	7%
CCOc1c(Cl)cc(Cl)cc1CNCCNCCO	0%	?
CC1=CC(=C(C#N)C#N)C=C(C)N1Cc1ccc(Cl)cc1	2%	12%
O=C(O)c1ccc(NS(=O)(=O)c2ccc(C(=O)Nc3ccccc3)cc2)cc1	-1%	1%
COc1ccc(-n2cnnc2SCc2cnc(-c3ccccc3)s2)cc1	0%	1%
COc1ccc(S(=O)(=O)NCC2CCCN(CC(C)(C)C)C2)cc1 (configuration not stated)	-3%	-8%
CN(c1ccc(C(=O)N2CCCCCC2)cc1)S(=O)(=O)c1ccc(Cl)cc1	-1%	-2%
Cc1cccc(NC(=O)CSc2nnc(CCC(=O)Nc3ccc(C)c(Cl)c3)n2C)c1	-3%	15%
CCN(c1ccccc1)S(=O)(=O)c1ccc(N2CCN(c3ccccc3O)CC2)nc1	6%	nt
O=C(Nc1ccc2[nH]c(=O)[nH]c2c1)C(F)(F)F	-7%	-1%
CCOC(=O)c1cc2c(=O)n3ccccc3nc2n(C)c1=NC(=O)c1c(-c2c(F)cccc2Cl)noc1C	-4%&8%	nt
S=C(c1ccc2c(c1)OCO2)N1CCOCC1	-1%	-9%
CCOC(=O)C1=c2s/c(=C\c3ccncc3)c(=O)n2C(N)=C(C(=O)OC)C1c1ccncc1 (configuration not stated)	17%	-4%
COc1cccc(-c2nnc(SCC(=O)NC3CCS(=O)(=O)C3)n2C)c1 (configuration not stated)	-1%	nt
COCCN(C(=O)CCC(=O)Nc1ccccn1)C(C(=O)NC(C)C)c1ccc(C)cc1 (configuration not stated)	-12%	-9%
Fc1cccc2sc(N3CCCC3)nc12	-7%	17%
CCOC(=O)Cc1csc(NC(=O)CN(C)S(=O)(=O)c2cccc3cccnc23)n1	-3%	8%
CC1(C)Cc2nc(-c3ccccc3)nc(SCC(=O)N3CCOCC3)c2CO1	11%	0%
O=C(CN1CCOCC1)Nc1ccc(Br)cn1	-1%	-8%
COc1cccc2c1[C@@H]1CN(CCCCn3c(=O)[nH]c4c(sc5ncc(-c6ccccc6)nc54)c3=O)C[C@@H]1CO2	-1%	?
Cc1ccnc(SCC(=O)NC2CCCCCC2)n1	21%	0%
CC(NC(=O)COC(=O)c1ccc(Br)o1)c1ccccc1 (configuration not stated)	2%	0%
CCOc1ccc(/C=N/NC(=O)CN2CCCCCCC2)cc1	13%	-1%
Cc1cccc(-c2noc(-c3ccc4c(c3)OCO4)n2)c1	0%	18%
(listing goes on)
SMILES	FEN1 inh	N370S GC mod
CCOC(=O)N1CCN(c2c(NCc3ccccn3)c(=O)c2=O)CC1	17%	-4%
COc1cc(NC(=O)CC2C(=O)OCCN2Cc2ccccc2)cc(OC)c1 (configuration not stated)	-7%	nt
CC(C)(C)c1ccc(OC(=O)c2ccccc2)cc1	-19%	3%
Cc1ccccc1-n1c(C)nnc1SCc1cc(=O)oc2ccc3ccccc3c12	?	4%
CCOc1ccccc1N1CC(C(=O)Nc2ccc3c(c2)OCCO3)CC1=O (configuration not stated)	-4%	-1%
COC(OC)c1ccnc(-c2ccc(OC(C)=O)cc2)n1	0%	0%
Cc1cc(C)cc(C(=O)Nc2ccc3[nH]c(=O)[nH]c3c2)c1	3%	1%
CCCCCOc1ccc(C(=O)Nc2ccc(S(=O)(=O)Nc3cc(C)on3)cc2)cc1	3%	-10%
C/C(=N\NC(=O)c1ccc(CN2CCOCC2)cc1)c1ccc([N+](=O)[O-])cc1	16%	10%
Cc1nc(-c2ccc(F)cc2)c(CC(=O)N2CCN(S(=O)(=O)c3cccc(Cl)c3)CC2)s1	-2%	-10%
CCN(CC)C1CCN(C(=O)c2ccc(OC3CCN(Cc4ccccn4)CC3)cc2)C1 (configuration not stated)	18%	1%
CC(Sc1nnc(N)s1)C(=O)Nc1ccc(N2CCOCC2)cc1 (configuration not stated)	-1%	-11%
Cc1cc(NC(=O)CCC(=O)N(CC(=O)NCC2CCCO2)c2cccc(F)c2)no1 (configuration not stated)	5%	-2%
CC(C)C12CCC(C(=O)O)C(C1)C(=O)O2 (configuration not stated)	-1%	23%
O=C(O/N=C1\CCCCC1c1ccc([N+](=O)[O-])cc1[N+](=O)[O-])c1c(F)cccc1F (configuration not stated)	7%	23%
CCOc1ccc(N2CC(C(=O)NCCN3C(=O)S/C(=C\c4ccc(OC)cc4)C3=O)CC2=O)cc1 (configuration not stated)	0%	-10%
O=C(c1cc(S(=O)(=O)N2CCCCC2)ccc1N1CCOCC1)N1CCN(Cc2ccccc2)CC1	-9%	-1%
CC(C)CC(N)c1cn([C@@H](CCC(=O)O)C(=O)N2CCNCC2)nn1 (some centres not stated)	-5%	2%
O=C(NCc1cccc(Cl)c1)c1ccc2ccccc2n1	-21%	21%
O=C(CNC(=O)c1ccc(Cl)cc1)OCC(=O)c1ccccc1	0%	6%
CC(CC(=O)N1CCN(S(=O)(=O)c2ccc(Cl)cc2)CC1)n1cncn1 (configuration not stated)	3%	-4%
CCOc1ccc(NC(=O)Nc2ccc(NC(C)=O)cc2)cc1	10%	3%
Cc1ccccc1NC(=O)COC(=O)C1(C)CC1(Cl)Cl (configuration not stated)	1%	8%
COc1cccc(C(=O)Nc2nnc(CCS(=O)(=O)c3ccc(C)cc3)s2)c1	15%	-9%
O=[N+]([O-])c1ccccc1Nc1ccccc1	-3%	-8%&2%
Further results follow:
SMILES	FEN1 inh	N370S GC mod
O=C(c1cc2c(s1)-c1ccccc1OC2)N1CCN(c2ccccn2)CC1	-21%	14%
Cc1ccc(OCc2nnc(SCC(N)=O)n2N)cc1	-1%	9%
O=C(Nc1ccc2nc(-c3cccnc3)[nH]c2c1)C12CC3CC(CC(C3)C1)C2	-4%	-25%
O=C(O)c1cnn(-c2nc(-c3ccc(F)cc3)cs2)c1C(F)(F)F	-18%	-4%
CCOc1ccc(NC(=O)C(C)NS(=O)(=O)c2ccc(NC(C)=O)cc2)cc1 (configuration not stated)	4%	-13%
Cc1c(C(=O)OCC(=O)N2CC(=O)Nc3ccccc32)oc2ccc(Br)cc12	6%	8%
OC[C@@H](O)[C@@H](O)[C@H](O)[C@H](O)CO	-4%	-7%
CCCC(C)NC(=O)c1ccc2[nH]c3c(c2c1)CC(C)CC3 (configuration not stated)	1%	-3%
COc1cc(S(=O)(=O)NCC2CCCO2)c(OC)cc1Cl (configuration not stated)	7%	-7%
Cc1nnc(SCc2ccc(C(=O)Nc3cc(Cl)ccc3C)cc2)s1	-18%	1%
COc1ccc(CCNC(=S)NC(=O)c2cccc([N+](=O)[O-])c2)cc1OC	-22%	-7%
Cc1oc(-c2ccccc2Cl)nc1CN(Cc1ccccn1)C[C@@H]1CCC(=O)N1	-1%	6%
O=C(CSc1nc2ccsc2c(=O)n1Cc1ccccc1F)NCc1ccccc1Cl	0%	nt
NCC(c1ccco1)c1c[nH]c2ccccc12 (configuration not stated)	-9%	-2%
Cc1ccn2c(/C=N/OCc3cccc(F)c3)c(-c3ccc(Cl)cc3)nc2c1	0%	24%
COc1cc(C2Nn3c(nnc3-c3ccccc3OC)S2)ccc1O (configuration not stated)	2%	-12%
CCOc1ccc(C(=O)N2CCC3(CC2)NCCc2[nH]cnc23)cc1	6%	7%
O=C(C1CC(=O)N(c2ccc(F)cc2)C1)N1CCN(c2ccccc2)CC1 (configuration not stated)	-11%	-6%
COC(=O)c1cn(C)c2ccc(S(=O)(=O)N3CCOCC3)cc2c1=O	2%	-7%
O=C(COC(=O)c1ccc2c(c1)OCCO2)NC1CCCCC1	-1%	nt
O=S(=O)(c1ccc(Cl)s1)N1CCCc2cccc(O)c21	-19%	28%
O=CC(O)C(O)C(O)C(O)CO (configuration not stated)	nt	-4%
COCCNC(=O)NC(=O)COC(=O)c1cc([N+](=O)[O-])ccc1Sc1nc(C)cs1	0%	-4%
COCCCNc1nc(N)c([N+](=O)[O-])c(Nc2ccccc2OC)n1	0%	-1%
Cc1cc(Oc2ccc(C#N)cc2)nc(NCc2ccccc2)n1	-15%	-8%

Compound profiles (already shown).
Entry for CCOc1ccc(NC(=O)C(C)NS(=O)(=O)c2ccc(NC(C)=O)cc2)cc1 (configuration not stated) → FEN1 inh: 4%; N370S GC mod: -13%
Entry for O=C(CSc1nc2ccsc2c(=O)n1Cc1ccccc1F)NCc1ccccc1Cl → FEN1 inh: 0%; N370S GC mod: nt
Entry for CCCC(C)NC(=O)c1ccc2[nH]c3c(c2c1)CC(C)CC3 (configuration not stated) → FEN1 inh: 1%; N370S GC mod: -3%

The main list resumes; the seven compounds before the break are reprinted first.
SMILES	FEN1 inh	N370S GC mod
COC(=O)c1cn(C)c2ccc(S(=O)(=O)N3CCOCC3)cc2c1=O	2%	-7%
O=C(COC(=O)c1ccc2c(c1)OCCO2)NC1CCCCC1	-1%	nt
O=S(=O)(c1ccc(Cl)s1)N1CCCc2cccc(O)c21	-19%	28%
O=CC(O)C(O)C(O)C(O)CO (configuration not stated)	nt	-4%
COCCNC(=O)NC(=O)COC(=O)c1cc([N+](=O)[O-])ccc1Sc1nc(C)cs1	0%	-4%
COCCCNc1nc(N)c([N+](=O)[O-])c(Nc2ccccc2OC)n1	0%	-1%
Cc1cc(Oc2ccc(C#N)cc2)nc(NCc2ccccc2)n1	-15%	-8%
CC(=O)Nc1n[nH]c(S(=O)(=O)Cc2ccc(Cl)cc2Cl)n1	-4%	4%
COc1ccc(Br)cc1C(=O)CCC(=O)OCC(=O)Nc1cc(C(N)=O)cc(C(N)=O)c1	-8%	-14%
Cc1cc(C)cc(N2C(=O)CC(N(C(=O)c3ccco3)c3cc(C)cc(C)c3)C2=O)c1 (configuration not stated)	-17%	?
COc1ccc(N2CCN(C(=O)CCc3nnc4ccc(N5CCCC5)nn34)CC2)cc1	-3%	-4%
CC(C)(C)NC(=O)c1cccc2c1C(=O)c1ccccc1-2	-23%	6%
CCOC(=O)c1nn(-c2ccc(Cl)cc2)c2nc(-c3ccc(C)cc3)c(C#N)c(=O)n12	-1%	12%
CCOc1ccccc1N1CCN(c2nc3ccccc3nc2C(C#N)C(=O)OC(C)C)CC1 (configuration not stated)	-9%	2%
CCC(=O)c1ccc(N2CCC(C)CC2)c(F)c1	-10%	-5%
Cc1c(C(=O)NCc2ccccc2Cl)sc2nc3n(c(=O)c12)CCC3	-4%	nt
O=C(CSc1nnc(C2CC2)n1C1CC1)c1cc(F)ccc1F	-2%	-1%
CCc1cc(C(=O)COc2ccc(F)cc2)c(O)cc1O	-3%	7%
O=C(N1CCOCC1)n1nnc2ccccc21	-3%	11%
CC1CCN(c2nc3ccc(C(=O)N4CCN(c5ccccc5)CC4)cc3s2)CC1	3%	nt
Cc1ccc(S(=O)(=O)Nc2c(C)nc3nc(C)[nH]n3c2=O)c(C)c1	0%&18%	-6%

Bioassay records from PubChem BioAssay.

Only part of the results is shown; most or all hits stand in other tables.
